# HCMV UL50-53 inh – inhibitors of HCMV UL50-UL53 interaction, biochemical, HTRF; HCMV UL50-UL53 nuclear egress complex (human cytomegalovirus); normalized percent inhibition; inhibition, % (concentration not given with the values); actives 0.15% (n = 190,000);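 active means both replicates at 50% or more, plus weaker picks with an unusually low signal ratio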;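 further: stock transfer was 100 nL into about 20 µL; 0% = negative control wells and 100% = wells with untagged competitor protein; inactives centre near -12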
# Sa growth inh – S. aureus growth inhibition at 42 and 30 °C, primary screen, LtaS inhibitor project, RN4220, two temperatures; OD600, 20 h, 42 °C; stronger effect = lower value; relative growth, % (no concentration beside the values); actives 0.53% (n = 170,000); AID 720641, 2013;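 active means growth at 42 °C up to 50% and 20 or more points under that at 30 °C, or under 10% at both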;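 further: 300 nL library stock went into each well; scaled to the means of positive and negative controls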
# GIV-Gai inh – inhibitors of GIV peptide binding to Galpha-i3, primary screen, biochemical, fluorescence polarization, FITC-GIV GBA peptide, rat Galphai3; 90 min; stronger effect = lower value; scaled: aluminum fluoride 0%, vehicle 100%; AID 1224905, 2016; percent of control (FP), % (no concentration beside the values); actives 0.42% (n = 210,000);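 active means replicate mean at 85% of control or lower, very high polarization wells dropped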;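 further: wells of about 15 µL received 100 nL stock; the first replicate is given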
# Target sequence (P08753 whole entry, looked up): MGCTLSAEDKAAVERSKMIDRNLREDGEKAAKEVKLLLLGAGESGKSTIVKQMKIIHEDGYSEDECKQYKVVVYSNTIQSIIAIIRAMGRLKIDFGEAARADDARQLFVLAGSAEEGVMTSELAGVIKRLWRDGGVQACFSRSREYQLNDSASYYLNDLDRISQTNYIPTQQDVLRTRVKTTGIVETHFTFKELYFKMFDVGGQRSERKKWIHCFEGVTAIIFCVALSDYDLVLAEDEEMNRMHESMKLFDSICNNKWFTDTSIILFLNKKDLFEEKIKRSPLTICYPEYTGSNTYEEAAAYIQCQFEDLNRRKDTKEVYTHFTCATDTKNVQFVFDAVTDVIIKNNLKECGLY
# Sa growth inh second temp – further read-out of Sa growth inh, marked with its call; relative growth, %; measured here: growth at 30 °C;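 optical density after 20 h as mean of two plates; 100% = untreated growth and lower means inhibition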
# An asterisk follows results filed as active; x = no result given; & = joins results of further samples. Rows are unselected (roughly 0.83% active in at least one column).
# Sample of the layout:
SMILES,HCMV UL50-53 inh,Sa growth inh,Sa growth inh second temp,GIV-Gai inh
COc1cccc(C(=O)N(Cc2cccnc2)c2nc3c(OC)ccc(C)c3s2)c1OC,x,122,84,96
Cc1c(Cl)cccc1NC(=S)NCc1cccn1C,x,131,76,99
Cc1c(NC(=O)Cc2ccccc2)cccc1-c1nc2cccnc2s1,-8,105,98,101
C[C@H]1O[C@@H](n2cc(F)c(=O)[nH]c2=O)[C@H](O)[C@@H]1O,-28&-38,1.1*,0.7*,100&102
O=C(O)CCC(=O)Nc1sc2c(c1C(=O)Nc1ccccc1)CCCCC2,10,95,94,113
COC(=O)c1ccc(NC(=O)CSC2=Nc3ccccc3C3CC=NN23)cc1 (stereo unspecified),-45,101,93,x
Cc1ccc(CCNc2ccccc2C)cn1,-10,95,84,106

# Results, from the start:
SMILES,HCMV UL50-53 inh,Sa growth inh,Sa growth inh second temp,GIV-Gai inh
COc1cccc(C(=O)N(Cc2cccnc2)c2nc3c(OC)ccc(C)c3s2)c1OC,x,122,84,96
Cc1c(Cl)cccc1NC(=S)NCc1cccn1C,x,131,76,99
Cc1c(NC(=O)Cc2ccccc2)cccc1-c1nc2cccnc2s1,-8,105,98,101
C[C@H]1O[C@@H](n2cc(F)c(=O)[nH]c2=O)[C@H](O)[C@@H]1O,-28&-38,1.1*,0.7*,100&102
O=C(O)CCC(=O)Nc1sc2c(c1C(=O)Nc1ccccc1)CCCCC2,10,95,94,113
COC(=O)c1ccc(NC(=O)CSC2=Nc3ccccc3C3CC=NN23)cc1 (stereo unspecified),-45,101,93,x
Cc1ccc(CCNc2ccccc2C)cn1,-10,95,84,106
CN(C(=O)COC(=O)c1ccccc1NS(C)(=O)=O)C1(C#N)CCCCC1,-33,88,93,x
O=C1CCC/C(=N/NC(=O)c2ccc(NS(=O)(=O)c3cccs3)cc2)C1,-29,69,93,x
C/C(=N\O)c1ccc2c(c1)CCC2,5,118,96,107
O=C(COC(=O)c1cccnc1Cl)c1ccc(F)cc1,-5,118,90,x
Clc1ccccc1Nc1ncnc2ccc(Br)cc12,-4,x,x,101
Cc1ccc(-c2noc(CNC(=O)c3ccc(C)c(Cl)c3)n2)cc1,-3,120,97,102
Cc1c(C(=O)NCCc2ccc(S(N)(=O)=O)cc2)sc2nc(-c3ccccc3)cn12,-11,98,94,99
CN(C)C(=O)Cn1c(=O)cnc2ccccc21,-14,81,98,x
CC1CC(C)CN(C(=O)C(C)Sc2nnnn2-c2ccc(Cl)cc2)C1 (stereo unspecified),-33,78,86,x
Cc1cccc(-c2nc(CSc3nncn4c3cc3oc(C)cc34)c(C)o2)c1,x,103,107,110
Cc1nc2cc(NC(=O)N3CCCC3)ccc2n1C,-10,97,88,105
O=C(COc1ccc(-c2nnco2)cc1)Nc1ccc2c(c1)OC(F)(F)O2,1,94,93,x
COc1ccc(-c2nc(C(=O)Nc3ccc(C(C)=O)cc3)nn2-c2cccc(Cl)c2)cc1,-12,91,66,102
Cn1cccc1/C=C/C(=O)O,-35,76,76,x
CCC(=O)Nc1ccc2c(c1)nc(Cn1cccn1)n2CC,-11,x,x,101
O=C(CC1C(=O)N(Cc2ccccc2)C(=S)N1CCc1ccc(Cl)cc1)Nc1ccccc1 (stereo unspecified),x,91,66,102
Cc1ccc2nc3ccc(N4CCC(Cc5ccccc5)CC4)nn3c(=O)c2c1,x,103,96,102
Nc1nnnn1CC(=O)NC1(C(=O)Nc2ccccc2)CCCCC1,4,110,95,100
CCCCNC(=O)CSc1nc2ccccc2nc1Cc1ccc(C)cc1,x,76,88,102
O=C(CCc1ccccc1)OCCN1CCOCC1,15,101,96,101
CC(C)[C@H](NC(=O)COc1ccc2ccccc2c1)C(=O)O,-41,94,89,x
CCOC(=O)c1c(-c2ccccc2)oc2c1cc(OC(=O)Cc1ccccc1)c1ccccc12,9,x,x,123
CCOc1ccc(C2C(C(=O)Nc3ccccc3)=C(C)Nc3nc(-c4ccccc4Cl)nn32)cc1OC (stereo unspecified),-31,98,76,104
O=C(Cn1c(=O)n(Cc2ccco2)c(=O)c2sc3ccccc3c21)NCc1ccccc1,-7,97,72,98
CCOc1nc2c(ncn2C)c(=O)n1C,x,98,92,106
COc1ccc(CNCC(C)NCc2ccc(OC)c(OC)c2)cc1OC (stereo unspecified),x,123,99,102
O=C(c1cc(C2CC2)on1)N1CCCC1c1ccc(F)cc1 (stereo unspecified),11,x,x,107
O=C(CSc1ccccn1)Nc1ccc(C2CCCCC2)cc1,-4,104,89,103
CCOc1cc2[nH]c(=O)n(Cc3ccc(C(=O)N4CCN(c5cccc(Cl)c5)CC4)cc3)c(=O)c2cc1OCC,x,75,91,104
O=C(NCc1ccco1)C(c1ccco1)N(C(=O)Cn1nnc2ccccc21)c1ccccc1 (stereo unspecified),-4,114,106,101
COC(=O)c1ccc(-c2nc(-c3ccc(OC)c(OC)c3)no2)cc1,-10,110,93,108
CC(C)CN(Cc1c(O)ccc2c1oc(=O)c1ccccc12)CC(C)C,x,91,74,102
Cc1ccccc1C(=O)NC(=S)NC1CCSC1=O (stereo unspecified),-16,117,96,102
CCOc1cc(C(F)(F)F)c(C(=O)N(CC)Cc2ccc(Cl)cc2)cn1,-6,112,91,105
CC1CCN(c2nc3c(S(=O)(=O)c4ccccc4)nnn3c3ccc(Cl)cc23)CC1,3,92,87,104
CCCC1O[C@@H]2C[C@H]3[C@@H]4CCC5=CC(=O)C=C[C@]5(C)[C@H]4[C@@H](O)C[C@]3(C)[C@]2(C(=O)CO)O1 (stereo partly specified),4&3&-37&-55&-22,x,x,97
O=C(c1ccccc1)N1CCN(C(=O)c2cnn3c2NC(c2ccc(Br)cc2)CC3C(F)(F)F)CC1 (stereo unspecified),-11,x,x,97
CC1=C(C(=O)Nc2cccc(C)n2)C(c2ccc(Br)cc2)C2=C(CC(C)(C)CC2=O)N1 (stereo unspecified),7,x,x,109
O=C(NCCc1ccccc1Cl)c1sc2ncccc2c1-n1cccc1,x,88,86,106
CCC(=O)Nc1ccc(C)cc1-c1nc2ccccc2n(Cc2ccccc2)c1=O,-11,114,87,100
O=C(c1ccc2[nH]c(=O)oc2c1)c1ccc2[nH]c(=O)oc2c1,-8,92,86,x
COc1cccc(NC(=O)c2nn(-c3cccc(OC)c3)c(=O)c3ccccc23)c1,4,105,93,x
O=C(c1coc2nc3ccccc3nc12)N1CCN(c2ccccc2)CC1,-4,96,88,101

# Next structures follow.
SMILES,HCMV UL50-53 inh,Sa growth inh,Sa growth inh second temp,GIV-Gai inh
Cc1ccc(C2=CC(c3c(F)cccc3Cl)n3nc(NS(C)(=O)=O)nc3N2)cc1 (stereo unspecified),-39,x,x,100
Cc1nn(-c2cc(C(F)(F)F)ccc2Cl)c(=O)c2noc(C)c12,-25,96,86,103
FC(F)(F)c1ccc2c(Cl)ccnc2c1,-1,92,86,x
CCOC(=O)c1cc2c(=O)n3ccccc3nc2n(CC2CCCO2)c1=NC(=O)c1cc(C)cc(C)c1 (stereo unspecified),-18,123,93,106
O=C(NCc1cccs1)c1ccc(Cl)cc1Cl,-9,94,92,101
O=C(Nc1nnc2n1CCS2)c1ccccc1,x,114,93,100
COc1ccc(OCCSc2nc3ccccc3n2CC(N)=O)cc1,7,x,x,103
COc1ccc(C2Nc3ccccc3C(=O)N2Cc2ccccc2)cc1CSc1nc2ccccc2s1 (stereo unspecified),0,x,x,103
O=C(O)CCc1ccc2c(c1)CCO2,-176,111,97,108
CCOc1ccc(NC(=O)CSc2nc3ccsc3c(=O)n2CCCCCC(=O)O)cc1,x,108,57,100
O=C(/C=C/N1CCOCC1)C(F)(F)F,-14,89,88,109
Clc1cc(C=Nc2cccnc2)c(Cl)s1,-2,86,95,107
Cc1cccc(Oc2ccc(Cl)cc2N)c1,-30,116,100,x
O=C(c1noc2ncnc(N3CCOCC3)c12)N1CCN(Cc2ccc3c(c2)OCO3)CC1,-12,x,x,100
Cc1cc(=O)[nH]c(N2CCC(C)CC2)n1,-15,x,x,95
CCCn1c(N)cc(=O)n(CCC)c1=O,-13,102,89,x
O=C(Nc1cc(Cl)ccc1Cl)c1cc2nc(-c3ccc4c(c3)OCO4)cc(C(F)(F)F)n2n1,-4,107,92,103
CSc1nc(N)nc2sc(C(=O)c3ccc(Cl)cc3)c(N)c12,x,90,91,104
Nc1sc(-c2ccccc2)cc1C(=O)O,-2,85,64,100
Cc1ccc(S(=O)(=O)Nc2ccc(F)cc2)cc1C(=O)N(C)CCO,-12,96,91,x
COC(=O)c1ccc(C2C(C#N)=C(N)Oc3n[nH]c(-c4ccc5c(c4)OCO5)c32)cc1 (stereo unspecified),-32,x,x,99
CN1CCC(N)=NC1=O,-6,102,96,x
Cc1cccc(-c2ccc(Nc3ccc(C(=O)NC(C)C)cc3)nn2)c1,6,x,x,99
Cn1cccc1Cc1nnc(SCC(=O)Nc2ccccc2F)n1CCc1ccccc1,-22,90,70,103
Cn1c(=O)[nH]c(=O)c2c1nc(CN1CCN(c3ccccc3F)CC1)n2CCc1ccccc1,2,104,84,107
O=C(CN1C2=NCCCN2c2ccccc21)c1ccc(Br)s1,x,88,88,101
O=C(Nc1sc2c(c1C(=O)NCCc1ccccc1)CCC2)c1ccco1,8,109,85,102
Cc1ccc(NC(=O)Cn2c(=O)n(Cc3ccccc3)c(=O)c3c2c2cc(C)ccc2n3C)cc1,x,124,85,108
CCC(=O)N1CCc2cc(S(=O)(=O)NCCC(=O)NCc3ccccc3Cl)ccc21,0,100,79,105
Cn1c(=O)c2c(nc(Sc3nc4ccccc4n3CC(=O)N3CCOCC3)n2C)n(C)c1=O,0,x,x,111

# Three compounds from above, ordered by SMILES length, highest first.
SMILES,HCMV UL50-53 inh,Sa growth inh,Sa growth inh second temp,GIV-Gai inh
Cn1cccc1Cc1nnc(SCC(=O)Nc2ccccc2F)n1CCc1ccccc1,-22,90,70,103
Cc1cccc(-c2ccc(Nc3ccc(C(=O)NC(C)C)cc3)nn2)c1,6,x,x,99
O=C(CN1C2=NCCCN2c2ccccc21)c1ccc(Br)s1,x,88,88,101

# Next section.
SMILES,HCMV UL50-53 inh,Sa growth inh,Sa growth inh second temp,GIV-Gai inh
COC(=O)c1cc(=O)c2ccccc2[nH]1,-15,x,x,99
O=C(CSc1nc2ccccc2s1)c1cc2ccccc2o1,-24,103,105,102
O=c1c2cnn(CCO)c2ncn1Cc1ccc(C(F)(F)F)cc1,-5,99,86,106
O=C(/C=C/c1cccs1)OCc1nc2ccc(Cl)cc2n1CCO,-34,126,75,x
Nc1nonc1C(=O)OCC(=O)Nc1ccccc1,-12,84,86,108
Cc1cccc(-c2n[nH]c(S(C)(=O)=O)c2C#N)c1,-46,95,74,106
Cc1cc(C)c(NC(=O)C(C)Sc2nc3ncccc3o2)c(C)c1 (stereo unspecified),-19,x,x,101
COc1ccc(C2NC(=O)N(C)C3=C2C(=O)N(c2ccc(C(=O)O)cc2)C3)cc1 (stereo unspecified),-25,104,92,100
CCc1ccc(C(=O)c2cn(CC(=O)NCc3ccc(C)cc3)c3nc(C)ccc3c2=O)cc1,x,86,100,113
N#CCCn1cc(/C=C2\NC(=S)NC2=O)c(-c2ccc3c(c2)OCO3)n1,-2,107,89,x
COc1ccccc1C1C2=C(CC(C)(C)CC2=O)Nc2ccccc2N1C(=O)Cc1ccccc1 (stereo unspecified),0,x,x,113
Cc1cc(C(=O)NCCc2ccc(Cl)cc2)c2c(C)nn(-c3cccc(F)c3)c2n1,x,86,90,101
CCc1ccc(NC(=O)CSC2=Nc3ccccc3C3=NC(C(C)C)C(=O)N23)cc1 (stereo unspecified),x,105,86,97
COc1ccc(C)cc1-n1nnnc1SCC(=O)N1CCC(C(=O)Nc2nccs2)CC1,-35,105,98,x
CC(=O)N1CCc2cc(-c3ccc(C(=O)NCCc4ccccc4)cc3)ccc21,-7,x,x,98
CCCn1c(=N)c(C(=O)OC)cc2c(=O)n3ccccc3nc21,x,90,92,110
CCOc1ccccc1Oc1c(C)oc2cc(O)ccc2c1=O,x,113,86,105

# Screens from PubChem BioAssay.
